Screening data (PubChem)
FPR binding: FPR binders displacing fluorescent formyl peptide, primary screen, U937-FPR cells, fMLFK-FITC, flow cytometry (AID 362); U937-FPR cells, fMLFK-FITC displacement, flow cytometry; stronger effect = higher value; test concentration not given here; most inactive calls were filed without a number and no value below 0 was filed; inhibition, %; actives 1% (n = 4,300);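 active = inhibition of labelled peptide binding to the formyl peptide receptor of at least 65%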;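 also: plate controls were buffer control wells for no effect and unlabeled fMLFF blocking peptide for full effect; higher means less cell fluorescence so more probe displaced; part of the set was picked by virtual screening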
Active calls of the source: *; i = inactive. An excerpt (hit frequency here may not be typical).

FPR binding | Compound
22.4 | COC(=O)c1c(-c2ccc(C)c(C)c2)csc1NC(=O)C1CCCCC1C(=O)O (configuration not stated)
i | CSc1nc2c(c(=O)n1C1CCOC(C)(C)C1)C1(CCCC1)Cc1ccccc1-2 (configuration not stated)
i | Cc1cc(O)c(C(C)C)cc1NS(=O)(=O)c1ccccc1
i | COc1cc2c(C(=O)N3CCN(c4ccc([N+](=O)[O-])cc4)CC3)cn(CC(C)C)c(=O)c2cc1OC
i | CC(=O)N1CCCc2cc(S(=O)(=O)NC3CCCCC3)ccc21
11.3 | COc1cc(C2C(C(=O)OC3CCCCCC3)=C(C)NC3=C2C(=O)CCC3)cc(OC)c1OC (configuration not stated)
i | N#CC1=C(N)Oc2c(c(=O)[nH]c3ccccc23)C1c1ccccc1C(F)(F)F (configuration not stated)
3.3 | CC1CC(C)CN(C(=O)c2ccc(CS(=O)(=O)Cc3ccc(F)cc3)o2)C1 (configuration not stated)
i | CC1(C)CC(=O)C2=C(C1)Nc1nc(C(F)(F)F)nn1C2c1ccccc1F (configuration not stated)
4.4 | COc1cccc(C(=O)COc2cccc(N3C(=O)C4C5C=CC(C6CC56)C4C3=O)c2)c1 (configuration not stated)
47.3 | CCCOC(=O)c1c(NC(=O)C2CCCCC2C(=O)O)sc2c1CCC2 (configuration not stated)
i | COc1cc2c(C(=O)N3CCN(c4ccccn4)CC3)cn(CC(C)C)c(=O)c2cc1OC
i | COC(=O)NC(Nc1sc2c(c1C(N)=O)CCC2)(C(F)(F)F)C(F)(F)F
i | CCOc1ccccc1CNC(=O)C12CC3CC(C1)CC(n1cnc(Br)n1)(C3)C2
i | CCc1cc2c(=O)c(-c3nc4ccccc4n3C)c(C(F)(F)F)oc2cc1O
0.1 | NS(=O)(=O)c1ccc(CCNC(=O)CSc2nc3ccsc3c(=O)n2CCCCCC(=O)O)cc1
3.1 | CCOc1ccc(C2C3=C(CC(C)(C)CC3=O)OC3=C2C(=O)CC(C)(C)C3)cc1OC
i | Cc1ccc(N2C(=O)C3C4C=CC(C3C2=O)C2C3C(=O)N(c5ccc(C)cc5)C(=O)C3C42)cc1 (configuration not stated)
i | COc1ccc(S(=O)(=O)NC2CCCCCCC2)cc1OC
i | O=C(CCCCCn1c(SCC(=O)OCc2ccccc2)nc2ccsc2c1=O)NCCc1ccccc1
2.7 | O=C(CSc1c2c(nc3ccccc13)CCCC2)NCCC1=CCCCC1
i | CCN(CCCNC(=O)C(NS(=O)(=O)c1ccc2c(c1)CCN2C(C)=O)C(C)C)c1cccc(C)c1 (configuration not stated)
i | COc1cc(C2C(C(=O)OCC(C)C)=C(C)NC3=C2C(=O)CC(c2ccccc2)C3)cc(Br)c1O (configuration not stated)
i | Cc1c(OC(=O)c2cccs2)ccc2c3c(c(=O)oc12)CCC3
1.9 | CCOC(=O)C1CCC(CN(Cc2ccccc2C)S(=O)(=O)c2ccc(NC(C)=O)cc2)CC1 (configuration not stated)
0.9 | O=C1CSC(c2cc3c(cc2[N+](=O)[O-])OCO3)N1c1cccc(C(F)(F)F)c1 (configuration not stated)
i | O=C1C2C3C=CC(C2C(=O)N1c1nccs1)C1C(=O)N(c2nccs2)C(=O)C31 (configuration not stated)
i | O=C(NC1(C(=O)NC2CCCC2)CCCCC1)c1ccccn1
69.7* | COc1cc(C2C(C(=O)OC3CCCCCC3)=C(C)NC3=C2C(=O)CCC3)cc([N+](=O)[O-])c1O (configuration not stated)
i | COc1ccc(NC(=O)C2CCC(CNS(=O)(=O)c3ccc(Br)s3)CC2)cc1OC (configuration not stated)
29.9 | CCCCN(C)CCCNC(=O)C1CCC(CNS(=O)(=O)c2c(C)cc(C)cc2C)CC1 (configuration not stated)
i | CCCn1c(C(O)c2cc(C(C)(C)C)c(O)c(C(C)(C)C)c2)nc2ccccc21 (configuration not stated)
i | CCN(CC)C(=O)c1cc2c(n(-c3ccccc3)c1=O)CC(C)(C)CC2=O
i | CCOC(=O)C1=C(C)NC2=C(C(=O)C(C(=O)OC)C(C)C2)C1c1cc(OC)c(OC)cc1OC (configuration not stated)
i | COc1cccc(NC(=O)CSc2nc3ccccc3c(=O)n2CC2CCC(C(=O)NCc3ccccc3)CC2)c1 (configuration not stated)
i | CCOc1cc(C2C(C(=O)OC3CCCC3)=C(C)NC3=C2C(=O)CCC3)ccc1OC(C)=O (configuration not stated)
i | Cc1ccc(CNC(=O)CSc2nc3ccccc3c(=O)n2CC2CCC(C(=O)NCC3CCCO3)CC2)cc1 (configuration not stated)
i | CCOC(=O)C1=C(C)NC2=C(C(=O)C(C(=O)OC)C(C)C2)C1c1ccccc1C(F)(F)F (configuration not stated)
i | CCCCN(CC)C(=O)CSc1nc2ccsc2c(=O)n1CC1CCC(C(=O)O)CC1 (configuration not stated)
i | Cc1ccc(C(=O)C2=C(N)OC3=C(C(=O)CC(C)(C)C3)C2c2ccccc2)cc1 (configuration not stated)
18.4 | CCOC(=O)C1=C(C)NC2=C(C(=O)C(C(=O)OC)C(C)C2)C1c1ccc(SC)cc1 (configuration not stated)
57.5 | CCOCCOC(=O)C1=C(C)NC2=C(C(=O)C(C(=O)OC)C(C)C2)C1c1ccc(C)c([N+](=O)[O-])c1 (configuration not stated)
i | CCOC(=O)C1=C(C)NC2=C(C(=O)C(C(=O)OC)C(C)C2)C1c1ccc(OCc2ccccc2)c(OC)c1 (configuration not stated)
1.5 | COC(=O)C1C(=O)C2=C(CC1C)NC(C)=C(C(=O)OC(C)C)C2c1ccc(OC)c(OC)c1OC (configuration not stated)
0.3 | COc1cc2c(C(=O)N3CCN(c4ccc(C)cc4)C(C)C3)cn(CC(C)C)c(=O)c2cc1OC (configuration not stated)

The closing two compounds of the section above are carried over, then new ones follow.
FPR binding | Compound
1.5 | COC(=O)C1C(=O)C2=C(CC1C)NC(C)=C(C(=O)OC(C)C)C2c1ccc(OC)c(OC)c1OC (configuration not stated)
0.3 | COc1cc2c(C(=O)N3CCN(c4ccc(C)cc4)C(C)C3)cn(CC(C)C)c(=O)c2cc1OC (configuration not stated)
i | CCc1cc(=O)oc2c(C)c(OC)ccc12
18.5 | CCOC(=O)C1=C(C)NC2=C(C(=O)C(C(=O)OC)C(C)C2)C1c1cccc2ccccc12 (configuration not stated)
1.4 | CC(C)CC(NC1CCS(=O)(=O)C1)C(=O)O (configuration not stated)
33.5 | COc1ccc(C2C(C(=O)OC3CCCCCC3)=C(C)NC3=C2C(=O)CCC3)cc1OC (configuration not stated)
i | COc1ccc(N2C3=C(C(=O)CC(C)(C)C3)C(c3ccc(F)cc3)C3=C2CC(C)(C)CC3=O)c(OC)c1
i | CC(=O)N1CCc2cc(S(=O)(=O)NC(C(=O)NCCc3ccc(S(N)(=O)=O)cc3)C(C)C)ccc21 (configuration not stated)
i | CC(C)Cn1cc(C(=O)NC(C)C)c2c3ccccc3n(C)c2c1=O
0.2 | COc1ccccc1N1CCN(C(=O)c2cn(CC(C)C)c(=O)c3c2c2ccccc2n3C)CC1
17.4 | COc1ccc(C2(CNC(=O)c3cc4ccccc4o3)CCCC2)cc1OC
i | CCCCn1c(=NC(=O)c2cc(OC)cc(OC)c2)c(C(=O)OCC)cc2c(=O)n3ccccc3nc21
i | COc1ccc(N(C)C(=O)c2cn(CC(C)C)c(=O)c3cc(OC)c(OC)cc23)cc1
i | CC1=CC(C)C(COC(=O)CN2CCCCC2)(COC(=O)CN2CCCCC2)C(C)C1 (configuration not stated)
32.6 | CCOc1ccc(S(=O)(=O)N(C(=O)C2CCCCC2)c2ccc3oc(C)c(C(=O)OC)c3c2)cc1
i | O=C(O)c1cccc(N2C(=O)C3C(C2=O)C2C=CC3C23CC3)c1 (configuration not stated)
i | N=c1c(C(N)=O)cc2c(=O)n3ccccc3nc2n1C1CCCC1

Among those listed so far, 4 contain a nitro group on carbon.
FPR binding | Compound
i | COc1cc2c(C(=O)N3CCN(c4ccc([N+](=O)[O-])cc4)CC3)cn(CC(C)C)c(=O)c2cc1OC
0.9 | O=C1CSC(c2cc3c(cc2[N+](=O)[O-])OCO3)N1c1cccc(C(F)(F)F)c1 (configuration not stated)
69.7* | COc1cc(C2C(C(=O)OC3CCCCCC3)=C(C)NC3=C2C(=O)CCC3)cc([N+](=O)[O-])c1O (configuration not stated)
57.5 | CCOCCOC(=O)C1=C(C)NC2=C(C(=O)C(C(=O)OC)C(C)C2)C1c1ccc(C)c([N+](=O)[O-])c1 (configuration not stated)

(continued)
FPR binding | Compound
i | CCCCOc1ccc(C(=O)N=c2c(C(=O)OCC)cc3c(=O)n4ccccc4nc3n2CCCC)cc1
i | COc1cc(NC(=O)C(C(C)C)N2C(=O)c3ccccc3C2=O)c(OC)cc1Cl (configuration not stated)
i | COc1ccc(NS(=O)(=O)c2ccc3c(c2)[C@H]2C=CC[C@H]2[C@@H](c2cccc(OC)c2OC)N3)cc1
14.6 | COc1ccc(CC(=O)NCC2(c3ccc(OC)cc3)CCOCC2)cc1
9.7 | COc1cc2c(cc1OC)C1(CCCC1)CN=C2c1cccc([N+](=O)[O-])c1
7.9 | CCOC(=O)C1=C(C)NC2=C(C(=O)C(C(=O)OC)C(C)C2)C1c1ccc(OC)cc1 (configuration not stated)
i | CCCN1CCN(C(=O)c2cn(CC(C)C)c(=O)c3cc(OC)c(OC)cc23)CC1
i | COCCOC(=O)C1=C(C)NC2=C(C(=O)C(C(=O)OC)C(C)C2)C1c1ccc(F)cc1 (configuration not stated)
0.3 | CC(C)Cn1cc(C(=O)NCCCN2CCCC2=O)c2c3ccccc3n(C)c2c1=O
i | CC(C)C(NC(=O)C(N)C(C)O)C(=O)O (configuration not stated)
27.2 | CCN(CC)c1ccc(C2C(C#N)=C(N)OC3=C2C(=O)CC(C)(C)C3)cc1 (configuration not stated)
13.1 | COC(=O)C1C(=O)C2=C(CC1C)NC(C)=C(C(=O)OCCOC(C)C)C2c1ccc(O)c(OC)c1 (configuration not stated)
i | CCOc1ccc(C2NC(=O)NC(C)=C2C(=O)OC2CCCC2)cc1 (configuration not stated)
0.3 | CCOC(=O)C1=C(C)NC2=C(C(=O)C(C(=O)OC)C(C)C2)C1c1cccc(Cl)c1 (configuration not stated)
2.4 | CCCCCn1c(SCC(=O)OCC)nc2cc(C(=O)N3CCN(C(=O)OCC)CC3)ccc2c1=O

Ordered by SMILES length (descending): some entries from above.
FPR binding | Compound
i | COc1ccc(NS(=O)(=O)c2ccc3c(c2)[C@H]2C=CC[C@H]2[C@@H](c2cccc(OC)c2OC)N3)cc1
0.3 | CC(C)Cn1cc(C(=O)NCCCN2CCCC2=O)c2c3ccccc3n(C)c2c1=O
i | CCOc1ccc(C2NC(=O)NC(C)=C2C(=O)OC2CCCC2)cc1 (configuration not stated)

The list continues:
FPR binding | Compound
i | COC(=O)C1C(=O)C2=C(CC1C)NC(C)=C(C(=O)OC(C)C)C2c1ccc(OC)c(O)c1 (configuration not stated)
0.9 | COc1ccc(NC(=O)CCCCCn2c(SCC(=O)NCc3ccc(C)cc3)nc3ccsc3c2=O)cc1
2.7 | CC1CCCN(C(=O)C2c3ccccc3C(=O)N3CCc4ccccc4C23)C1 (configuration not stated)
i | O=C(Oc1ccc2c3c(c(=O)oc2c1)CCC3)c1cccs1
49.3 | CC(C)C1=CC23CCC4C(C)(C(=O)O)CCCC4(C)C2CC1C1C(=O)N(c2ccc(S(N)(=O)=O)cc2)C(=O)C13 (configuration not stated)
28.8 | CCCCCOC(=O)C1=C(C)N(C)C(=O)NC1c1cc2c(cc1Br)OCO2 (configuration not stated)
6.0 | Cc1ccn2c(NC(=O)C(C)(C)Oc3ccc(Cl)cc3)c(-c3cccs3)nc2c1
i | COc1ccc(C2C3=C(CC(C)(C)CC3=O)Nc3ncnn32)cc1OC (configuration not stated)
i | COc1ccc(C2NC(=O)NC(C)=C2C(=O)OCC(F)(F)F)cc1OC (configuration not stated)
i | COc1cccc(CNC(=O)C2CCN(S(=O)(=O)N3CC(C)CC(C)C3)CC2)c1 (configuration not stated)
i | COc1ccccc1N1CCN(C(=O)C2CCC(CNS(=O)(=O)c3ccc(NC(C)=O)cc3)CC2)CC1 (configuration not stated)
i | CCCc1ccc(Oc2c(C(F)(F)F)oc3c(C)c(OC)ccc3c2=O)cc1
i | CCOC(=O)C1=C(C)NC(=O)NC1c1cc(C(C)(C)C)c(O)c(C(C)(C)C)c1 (configuration not stated)
i | CCCCCOC(=O)C1=C(C)N(C)C(=O)NC1c1cc(Br)c(O)c(OC)c1 (configuration not stated)
10.5 | CCSCCOC(=O)C1=C(C)NC2=C(C(=O)C(C(=O)OC)C(C)C2)C1c1ccc(Cl)c(F)c1 (configuration not stated)
13.5 | CCCCCn1c(SCC(=O)OCC)nc2cc(C(=O)NCC3CCCO3)ccc2c1=O (configuration not stated)
1.9 | CCOC(=O)C1=C(C)NC2=C(C(=O)C(C(=O)OC)C(C)C2)C1c1ccc(Cl)c(F)c1 (configuration not stated)
i | O=c1c(Oc2ccc(-c3ccccc3)cc2)c(C(F)(F)F)oc2c(CN3CCCCC3)c(O)ccc12
i | CC(=O)N1CCc2cc(S(=O)(=O)NC(C(=O)NC(C)c3ccccc3)C(C)C)ccc21 (configuration not stated)
i | CC1=CC(C)(C)N(C(=O)CN2C(=O)C3CCCCC3C2=O)c2ccc(OC(=O)CN3C(=O)C4CCCCC4C3=O)cc21 (configuration not stated)
8.6 | COC(=O)C1C(=O)C2=C(CC1C)NC(C)=C(C(=O)OC1CCCC1)C2c1ccc(OC)c(O)c1 (configuration not stated)
i | CCCCCOC(=O)c1cccc(N2C(=O)C3C4CCC(C4)C3C2=O)c1 (configuration not stated)
i | COC(=O)C1C(=O)C2=C(CC1C)NC(C)=C(C(=O)OC1CCCC1)C2c1ccccc1C (configuration not stated)
i | CCOC(=O)c1cc2c(=O)n3ccccc3nc2n(C2CCCCC2)c1=NC(=O)c1cc(OC)cc(OC)c1
i | Cc1sc2ncn(CC(=O)N3CCCCCC3)c(=O)c2c1S(=O)(=O)N1CCN(C)CC1
i | Cc1ccccc1C1C2=C(CC(C)(C)CC2=O)Nc2ncnn21 (configuration not stated)
28.7 | CCOC(=O)C1=C(C)NC2=C(C(=O)C(C(=O)OC)C(C)C2)C1c1cccc(OCC)c1 (configuration not stated)
i | COc1ccc2c(c1)C(C)CC(C)(C)N2C(=O)Nc1ccc(Cl)cc1 (configuration not stated)
